TRPML1 ag – agonists of human TRPML1 channel; Q9GZU1; TRPML1-expressing cells, Ca2+ dye fluorescence, FDSS; host cell line not named in the record; reference of the full effect not given here; activation, % (test concentration not listed); hit rate 0.12% among 410,000; in the data active = activation above about 50%; inconclusive = about 30% to 50%; inactive = below about 30%; also: 0% is about no effect; the text of the record puts the active cut at 80%
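Agonist activity was taken from a 110 s kinetic Ca2+ dye read on the FDSS after pinning compounds onto TRPML1-DL cells. The cells were seeded at 1,500/well with Tet inducer, incubated about 16 h, then dye-loaded at room temperature.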
TRPV1 PAM – human TRPV1 potentiation. Q8NER1. TRPV1-expressing cells, Fluo-8 calcium influx, capsaicin EC20 potentiation; host cell line not named in the record; control for the full effect not named in the record. potentiation, % at 8.33 µM. hit rate 0.02% among 320,000. AID 540277; active means potentiation above 80%; inconclusive means 30% to 80%; inactive means below 30%; also: 0% is about no effect
Target sequence (Q8NER1 whole entry, looked up): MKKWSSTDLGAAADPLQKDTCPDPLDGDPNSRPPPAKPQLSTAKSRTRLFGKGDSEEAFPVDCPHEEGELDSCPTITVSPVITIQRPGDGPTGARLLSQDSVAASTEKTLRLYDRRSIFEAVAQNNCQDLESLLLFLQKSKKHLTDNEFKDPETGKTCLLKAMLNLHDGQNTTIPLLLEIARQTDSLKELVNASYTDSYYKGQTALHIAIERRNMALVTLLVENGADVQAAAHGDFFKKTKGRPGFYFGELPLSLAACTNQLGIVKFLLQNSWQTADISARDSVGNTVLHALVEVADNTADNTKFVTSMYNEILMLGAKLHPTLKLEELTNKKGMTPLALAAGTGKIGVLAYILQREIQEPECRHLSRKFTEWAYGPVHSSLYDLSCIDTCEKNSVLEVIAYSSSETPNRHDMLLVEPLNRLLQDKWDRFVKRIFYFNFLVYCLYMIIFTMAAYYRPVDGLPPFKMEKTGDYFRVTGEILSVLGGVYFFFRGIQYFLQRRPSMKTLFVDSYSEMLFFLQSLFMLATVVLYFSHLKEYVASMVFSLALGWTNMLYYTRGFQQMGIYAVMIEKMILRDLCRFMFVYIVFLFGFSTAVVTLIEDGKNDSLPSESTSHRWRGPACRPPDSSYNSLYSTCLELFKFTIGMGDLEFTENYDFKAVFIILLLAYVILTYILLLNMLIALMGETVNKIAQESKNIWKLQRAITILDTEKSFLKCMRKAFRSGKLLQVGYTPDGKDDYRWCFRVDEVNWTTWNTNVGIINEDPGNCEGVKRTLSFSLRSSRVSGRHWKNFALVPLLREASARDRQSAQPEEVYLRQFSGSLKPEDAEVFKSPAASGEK
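Fluo-8 calcium influx in TRPV1-expressing cells, kinetic read (ex 480/em 520 nm). Compound added and read 3 min for agonist activity, followed by capsaicin at EC20 final and 2 min further read for enhancement.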
PINK1 expr mod – PINK1 expression modulation | Potency, µM (doses to about 76.6 µM), for the others: at the top dose activation (PINK1 increase), actives largely listed as activators | PINK1 immunofluorescence, high-content cytometry, 24 h | hit rate 0.2% among 410,000; active = well fitted activation curve with a large enough effect; inconclusive = small, poorly fitted or top-dose-only effect; inactive = flat fitted curve, though single readings scatter; cell line not stated here;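 also: potency is read from the fitted curve at half-maximal effect; % of control where 0% means no effect; nearly all actives have a fitted effect of over 65% in size; a mitochondrial uncoupler was the plate control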
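Cells are seeded, rested 12 hours, then given compound at five concentrations or DMSO for 24 hours. After fixation, blocking and antibody staining, PINK1 amount and mitochondrial localization are scored; CCCP serves as control.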
ClpP mod – qHTS Assay for Activators of ClpP; AID 651965, 2013; purified B. subtilis ClpP, FRET peptide cleavage, 20 min; Potency, µM (highest dose often 57.5 µM), inactives show at the highest dose activity change, negative = active; hit rate 1.9% among 340,000; ATP-dependent Clp protease proteolytic subunit (Bacillus subtilis (strain 168)), P80244; active = well fitted falling curve with a large enough effect; inconclusive = small, poorly fitted or top-dose-only effect; inactive = no such curve, though single readings can be large or run the other way; also: potency is read from the fitted curve at half-maximal effect; the source files actives as falling curves though it sought activators and does not explain the sign; nearly all actives have a fitted effect of over 65% in size; many hits overshoot -100%
Target sequence (P80244 whole entry, looked up): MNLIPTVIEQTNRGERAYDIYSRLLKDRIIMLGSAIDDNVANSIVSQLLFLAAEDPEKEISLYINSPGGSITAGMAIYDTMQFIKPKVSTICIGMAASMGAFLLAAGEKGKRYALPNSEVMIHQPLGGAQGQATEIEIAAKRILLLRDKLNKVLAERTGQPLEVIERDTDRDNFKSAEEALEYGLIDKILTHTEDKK
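Purified B. subtilis ClpP, 10 microg/mL final in Tris/HCl pH8 with KCl, BSA, glycerol and Tween-20, cleaved an Abz/nitrotyrosine-quenched decapeptide. Fluorescence (ex 320, em 430) was read at 0 and 20 min at room temperature. Delta was normalized to 5.8 microM ADEP and DMSO/no-enzyme controls.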
TRPML1 blocker – human mucolipin-1 channel inhibition. Q9GZU1. TRPML1-inducible cells, Ca2+ dye fluorescence, FDSS; stronger effect = lower value; inhibition of EC80 agonist-evoked calcium signal. activity change, negative = inhibition, % (concentration not given with the values). hit rate 0.02% among 390,000; in the data active means activity change below about -50%; inconclusive means about -30% to -50%; inactive means above about -30%;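 also: stimulus is agonist 54-4 at its EC80 concentration; % is scaled to controls: 0 for no effect and ±100 for the full control effect; compound concentration not given in the record; the text of the record puts the active cut at -80%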
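Calcium fluorescence in TRPML1-DL cells induced overnight with Tet: a 110 s read after compound pin addition, then a 110 s antagonist read after challenge with 54-4 at 4 uM final (EC80).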
Sfp inh – Sfp phosphopantetheinyl transferase inhibition; Potency, µM, inactives show max response, negative = inhibition, usual class: inhibitors; AID 1490; hit rate 3.5% among 310,000; Q9F4F7; Biochemical Sfp PPTase activity, qHTS; active = well fitted inhibition curve with a large enough effect; inconclusive = small, poorly fitted or top-dose-only effect, or another doubt; inactive = no such curve, though single readings can be large or run the other way;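 also: the enzyme is Sfp with the accession as filed and its product quenches rhodamine fluorescence; potency is read from the fitted curve at half-maximal effect; 0% = enzyme reaction without inhibitor and -100% = no enzyme wells; top concentration of the series not given in the record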
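Fluorescence-quenching assay: 15 nM Sfp-PPTase preincubated 15 min at room temperature with compound, then 5 uM rhodamine-CoA and 12.5 uM BHQ-2-labelled YbbR peptide added. Fluorescence (ex 525/em 598 nm) read at start and after 30 min; difference gives rate.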
Menin-MLL FL inh – displaces fluorescein MLL peptide from human menin; AID 1766; FP activity change, % at 61.4 µM; 290,000 tested, under 10 active; Fluorescence polarization, fluorescein-MLL peptide displacement from menin; inconclusive = falling polarisation curve, or a change in total fluorescence; inactive = total fluorescence flat and polarisation flat or rising; no compound was filed as active; the % refers to the polarisation; negative = inhibition;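 also: % of control where 0% means no effect; inhibitors lower the polarisation; unlabelled MLL peptide was the positive control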
The depositor's hits bear a star; ? = inconclusive; nt = not tested or not shown; & = joins results of further samples; [ ] = dose if it differs, or a comment.

SMILES | TRPML1 ag | TRPV1 PAM | PINK1 expr mod | ClpP mod | TRPML1 blocker | Sfp inh | Menin-MLL FL inh
C=C(C)CNC(=S)Nc1cccc2cnccc12 | 0.8 | -19 | 1.3% | 0.5% | 4 | -5% | nt
Cc1cccc(C)c1OCCn1nnc2ccccc21 | 1.4 | -4 | 5.1% | 0.6% | 8 | 17% | -3.5
O=C(NNC(=O)c1cccs1)c1ccc(Br)cc1 | -0.2 | 3 | -0.8% | nt | 7 | 8% | -3.2
CC(=O)NCCn1c(SCc2ccc(C)cc2)nc2ccccc2c1=O | -0.3 | -17 | nt | -0.9% | -18 | 4% | 1.2
COc1ccc(Nc2oc(/C=C/c3ccccc3OC)nc2C#N)cc1 | -0.1 | nt | 12% | 4.8% | -16 | nt | nt
Nn1c(Cc2ccccc2F)n[nH]c1=S | 2.2 | -6 | 2.4% | -0.1% | 17 | ? | -5.6
CCCCSc1nc(C)cc(NC(=S)Nc2ccc(OC)cc2)n1 | 1.7 | -5 | 2.9% | -2.1% | 2 | 14% | 4.2
O=C(CSc1nnc(Cc2cc(=O)[nH]c(=O)[nH]2)n1-c1ccc(Cl)cc1)NC1CCCC1 | 0.1 | nt | 2.6% | -1.1% | 3 | -30% | ?
CCn1cc(C(=O)O)c(=O)c2cnc(N3CCN(C(=S)NC(=O)c4ccc(Cl)cc4Cl)CC3)nc21 | 0.0 | -2 | 5.7% | nt | -15 | 21% | -1.7
Cc1ccc(-c2nn(-c3ccccc3)cc2C(=O)N2CCOCC2)cc1 | 0.4 | -4 | -1.5% | -0.5% | 2 | 5% | -2.9
COc1ccc(C2C(C(=O)c3ccc(C)o3)=C(O)C(=O)N2c2cc(C)on2)cc1OC (centres undefined) | 0.2 | -3 | 5.2% | -1.2% | -3 | -10% | 1.3
COc1cccc(-c2noc(C3CCCN(C(=O)c4ccc(F)cc4)C3)n2)c1 (centres undefined) | 2.4 | -10 | 0.0% | nt | 20 | 12% | -1.5
COc1ccc(CN(Cc2cc3cc(C)ccc3[nH]c2=O)C(=O)N(C)C)cc1 | -1.0 | -8 | -1.6% | ? | -5 | -3% | -2.1
CCCCN1C2CCCC1CC(NC(=O)C1CCCCC1)C2 (centres undefined) | 0.1 | 5 | -1.3% | 0.9% | 0 | 16% | -0.8
Cc1cc(C)n(-c2ccc(C(=O)Nc3cccc([N+](=O)[O-])c3)cc2)n1 | 2.9 | -2 | 3.7% | nt | 8 | 11% | -0.9
CC1(C(=O)Nc2ccc(Cl)c(Cl)c2)CCN1CCc1ccccc1 (centres undefined) | 0.7 | nt | 9.4% | -1.8% | nt | nt | nt
COc1ccc(NC2CCCN(C(=O)CCn3cccn3)C2)cc1 (centres undefined) | -0.1 | -24 | 0.2% | -10% | 10 | 17% | nt
C=CCNC(=O)COc1cc(C)ccc1C | -0.2 | 0 | 2.2% | -1.9% | 7 | 8% | 3.1
CCOc1ccccc1NC(=O)C1CCCN(S(=O)(=O)c2c(C)[nH]c(=O)[nH]c2=O)C1 (centres undefined) | -0.2&-0.9 | 6 | 2.2%&-0.1% | 1.2%&0.1% | -12&-13 | -1% | -0.5
COc1ccc2c(C)c(CCC(=O)NCCc3ccccc3)c(=O)oc2c1 | 0.7 | nt | -0.6% | 4.2% | 41 | nt | nt
COc1ccc(-c2nc3ncccc3n2O)cc1 | -0.4 | -11 | 1.3% | -3.0% | 6 | 4% | -7.0
COc1cccc(C(=O)Nc2ccc(C3CC3(Cl)Cl)cc2)c1 (centres undefined) | 1.0 | -23 | 0.0% | -4.9% | 15 | 2% | 3.2
C/C(=C\c1ccccc1)CN1CCC(C(=O)N2CCCCC2)CC1 | 1.3 | -20 | 0.4% | -2.0% | ? | -9% | 1.6
CC(C)CC1NC(=O)N(CC(=O)Nc2ccc(OC(F)F)cc2)C1=O (centres undefined) | 0.2 | 20 | 2.3% | -1.9% | 8 | nt | nt
CC1(C)c2ccccc2-c2nc3ccccc3cc2C1N1CCOCC1 (centres undefined) | 2.8 | nt | 15% | nt | 29 | nt | nt
Cc1ccc(S(=O)(=O)Nc2nc(-c3ccc(F)cc3)cs2)cc1 | -0.2 | 16 | 1.4% | nt | -1 | -2% | 0.3
Cc1ccc(OCC(=O)N2CC(C)CC(C)C2)c([N+](=O)[O-])n1 (centres undefined) | 0.2 | nt | -1.6% | nt | 6 | nt | nt
Cc1cc(C)c2c(N)c(C(=O)c3ccc(Cl)c(Cl)c3)sc2n1 | 1.1 | -18 | 6.6% | -0.3% | -3 | -1% | -0.8
CC(=O)Nc1ncc(Cc2cccc(Cl)c2Cl)s1 | 1.7 | -2 | 14% | nt | 8 | 30% | 2.0
O=C(COc1ncnc2ccccc12)NC1CCCCC1 | -0.2 | nt | -0.1% | -5.1% | 0 | nt | nt
Cc1nc(N)c(Cc2ccc(Cl)cc2Cl)c(N)n1 | -0.8 | 9 | 1.9% | nt | 20 | 18% | 2.5
CCN(C[C@H]1N[C@@](C)(C(=O)OC)[C@H]2C(=O)N(Cc3ccccc3)C(=O)[C@@H]12)C(=O)c1ccc(C)cc1 | 2.5 | nt | -0.3% | 1.3% | 3 | nt | nt
N#CC[C@H](Cc1ccccc1)N1CC[C@@H](O)CCC1=O | -0.3&-0.3 | -12 | -0.4% | -1.6%&-14% | -8 | 24% | 2.0
Cc1cc(C)n(-c2nc(NC(C)C)nc(NC(C)(C)C)n2)n1 | 1.0 | nt | 1.8% | 1.9% | nt | nt | nt
CN(CC(=O)Nc1ccccc1C(F)(F)F)C(=O)COc1ncnc2ccccc12 | -0.3 | 7 | 3.4% | -2.4% | 3 | 16% | -2.4
O=C(O)C1CCCN1S(=O)(=O)c1cccc(S(=O)(=O)N2CCCC2C(=O)O)c1 (centres undefined) | -0.5 | 13 | 0.8% | 1.5% | -5 | 22% | -1.1
CCOc1ccc(-c2cnc3n2CCCCC3)cc1 | -0.3 | -7 | 0.5% | 0.7% | -1 | 28% | 0.8
COC(=O)[C@H](CC(C)C)NS(=O)(=O)N(Cc1ccccc1)[C@@H](CC(C)C)C(=O)OC | 0.7&3.2 | -13 | ? | 0.4%&-0.1% | 36 | nt | nt
CC(=O)c1cc(F)ccc1OCC(=O)N1CCCc2ccccc21 | 1.6 | 15 | 2.0% | nt | 1 | 7% | -1.2
COCCCN1C(=O)C(=O)/C(=C(/O)c2ccc(S(=O)(=O)N3CCCCC3)cc2)C1c1cccc(OC)c1 (centres undefined) | 0.8 | 9 | -1.4% | -0.6% | -17 | 11% | -2.6
NS(=O)(=O)c1ccc(NC(=O)COC(=O)c2c3c(nc4ccccc24)/C(=C\c2ccc4c(c2)OCO4)CCC3)cc1 | 8.9 | -19 | -3.2% | -0.2% | -15 | 1% | nt
Cc1ccc(C(=O)NCCc2ccc(S(=O)(=O)N3CCCC3)cc2)cc1 | 2.0 | 3 | -1.3% | nt | 3 | 9% | -4.2
Cc1ccc(C(=O)COC(=O)CCN2C(=O)C3C4C=CC(C5CC45)C3C2=O)cc1 (centres undefined) | 0.7 | 13 | -1.4% | -2.4% | -5 | 4% | nt
Cc1cc(C(=O)Nc2ccc3c(c2)CCC3)c2ccccc2n1 | -0.4 | 6 | 12% | nt | 16 | 17% | ?
Cc1cc(C)cc(OCC(=O)OCC(=O)Nc2cc(S(=O)(=O)N3CCOCC3)ccc2Cl)c1 | 4.0 | nt | 0.0% | -2.6% | -12 | nt | nt
COc1ccc(CCNC(=O)c2cc(C)nc3c2c(C)nn3-c2ccc(C)cc2)cc1OC | 0.1 | nt | 2.3% | -3.9% | -21 | nt | nt
Cn1c(=O)c2c(nc(Oc3ccc(C#N)cc3)n2Cc2ccc(Cl)cc2Cl)n(C)c1=O | 0.6 | nt | -0.2% | -1.9% | 13 | nt | nt
O=C(CN(CC1CCCO1)C(=O)CNS(=O)(=O)c1ccc(F)cc1)NCc1ccc(F)cc1 (centres undefined) | -0.4 | 5 | 1.5% | nt | 8 | 23% | nt
C=CCOn1c(=O)c(-c2cccs2)[n+]([O-])c2ccccc21 | -0.5 | -5 | -1.6%[38.3 µM] | -6.3% | -5 | -21% | 6.4
O=C(O)c1ccc(-c2nc(-c3ccc(Cl)cc3)cs2)cc1 | -0.1 | 17 | 1.2% | 3.6% | 5 | 2% | 1.3
CCn1c(C2CCN(S(=O)(=O)c3ccc(OC)cc3)CC2)n[nH]c1=S | 1.3 | 3 | -1.0% | nt | -3 | 18% | 0.8
C=CCN=C1SCC(=O)N1S(=O)(=O)c1ccc(C)cc1 | 3.1 | ? | -1.8% | 0.2% | 3 | 6% | ?
Cn1c(CCNC(=O)c2ccccc2F)nnc1SCC(=O)Nc1nncs1 | 0.5 | 3 | 2.3% | nt | -3 | 7% | -2.5
C=CCn1c2ccccc2c(=O)c2cc(C#CC3(O)CCCCC3)ccc21 | 0.7 | 9 | 3.4% | 3.4% | 8 | 3% | -1.8
O=C(CCCCCCCC(=O)NCC1CCCO1)NCC1CCCO1 (centres undefined) | 0.3 | -3 | -0.2%[38.3 µM] | -2.5% | -10 | 3% | 1.9
COc1ccc(Cn2c(=O)[nH]c3cc(C(=O)N4CCN(c5cccc(OC)c5)CC4)ccc3c2=O)cc1 | -0.7 | nt | 0.6% | 0.0% | -8 | nt | nt
COc1ccc(OC)c(NC(=O)C2(C)CCN2C(C)C)c1 (centres undefined) | -0.5 | nt | 1.5% | 1.3% | nt | nt | nt
CCCOc1cccc(C(=O)Nc2cc(NC(=O)c3ccco3)ccc2OC)c1 | 3.3 | -13 | -1.6% | -1.8% | -11 | 1% | 2.0
O=C(NC1CCCCCCC1)c1ccc(F)c(S(=O)(=O)N2CCOCC2)c1 | -0.5 | -28 | 3.7% | -0.8% | -2 | nt | nt
COc1cc(C)ccc1OCCOCCN(C)Cc1ccccc1 | 1.7 | 4 | 1.0% | -3.5% | 9 | -17% | 3.9
COc1ccc(CN2CCNC(=O)C2CC(=O)NC2CCCCCC2)c(C)c1C (centres undefined) | -0.1 | 12 | 2.3% | 1.7% | 12 | 4% | nt

Screening data from PubChem.
